From PubChem
NS1 function inh – qHTS Assay for Inhibitors of Influenza NS1 Protein Function. S. cerevisiae slowed by influenza A NS1, growth recovery by OD600. AID 2326, 2010. 270,000 compounds, 0.4% hits. Potency, µM (highest dose often 46.1 µM), inactives show at the top dose activity, positive = more growth; active means well fitted rising curve with a large enough effect; inconclusive means small, poorly fitted or top-dose-only effect; inactive means no such curve, though single readings can be large or run the other way; also: nearly all actives have a fitted effect of over 50% in size
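Compounds were scored for reversing the slow growth caused by influenza A NS1 in S. cerevisiae, measured by optical density at 600 nm. Assay medium contained 2% galactose at pH 6.0; NS1-free yeast of the same strain were the positive control.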
StopGo reporter – High Throughput Screening for Foot and Mouth Disease Virus Antivirals; human cells with a luciferase reporter of 2A StopGo recoding; control for the full effect not named in the record; Potency, µM (highest dose often 57.9 µM), inactives show top-dose signal change, negative = less light; 410,000 compounds, 1.2% hits; active = well fitted falling curve with a large enough effect; inconclusive = small, poorly fitted or top-dose-only effect; inactive = no such curve, though single readings can be large or run the other way; tested in HEK293T cells; also: % is scaled to controls: 0 for no effect and ±100 for the full control effect; nearly all actives have a fitted effect of over 45% in size; luciferase light after 4 h
Cruzain inh Det – qHTS Assay for Promiscuous and Specific Inhibitors of Cruzain (with detergent). purified cruzain, Z-FR-AMC fluorescence, 0.01% Triton. Cruzipain (Trypanosoma cruzi), P25779. 200,000 compounds, 0.43% hits. Potency, µM, inactives show max response, negative = inhibition, actives largely listed as inhibitors;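 also: plate controls were neutral wells for no effect and buffer without enzyme for full effect; nearly all actives have a fitted effect of over 40% in size; top concentration of the series not given in the record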
Target sequence (P25779 123-467 limits assumed): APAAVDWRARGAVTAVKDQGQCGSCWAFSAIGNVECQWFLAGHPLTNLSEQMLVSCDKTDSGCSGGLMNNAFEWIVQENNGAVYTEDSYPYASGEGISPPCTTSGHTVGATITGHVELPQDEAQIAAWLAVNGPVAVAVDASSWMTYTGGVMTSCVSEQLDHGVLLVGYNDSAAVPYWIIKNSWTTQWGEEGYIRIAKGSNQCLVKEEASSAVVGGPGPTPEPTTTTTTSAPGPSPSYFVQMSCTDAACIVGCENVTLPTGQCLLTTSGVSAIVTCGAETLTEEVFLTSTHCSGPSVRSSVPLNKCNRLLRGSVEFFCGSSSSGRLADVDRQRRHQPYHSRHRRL
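Compounds were screened in titration against cruzain (1.5 nM) with 0.01% Triton X-100 to counter colloidal aggregation. Activity was the AMC fluorescence increase over 60 s after adding 2 uM Z-FR-AMC at pH 5.5.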
MARV entry inh – qHTS for inhibitors of binding or entry into cells for Marburg Virus | AID 540276, 2011 | Potency, µM (series often up to 37.8 µM), without a hit: at the highest dose activity change, negative = inhibition, usual class: inhibitors | 300,000 compounds, 1.8% hits | Marburg virus pseudotyped entry inhibition, cell reporter; control for the full effect not named in the record; about a third of the inactives were read at about 46 µM; active = well fitted inhibition curve with a large enough effect; inconclusive = small, poorly fitted or top-dose-only effect, or effect the other way; inactive = flat fitted curve, though single readings scatter; tested in HEK293 cells; about a fifth of its hits are not listed in these tables; also: % is scaled to controls: 0 for no effect and ±100 for the full control effect; luciferase read-out
RE007 growth inh – qHTS Assay for Inhibitors of the HIV-1 protein Vpr. S. pombe RE007 Vpr strain, BacTiter-Glo ATP luminescence, 24 h; control for the full effect not named in the record. Potency, µM (doses to about 92.2 µM), for the others: at the top dose activity change, negative = less growth. 360,000 compounds, 0.21% hits. AID 651644, 2012; active = well fitted falling curve with a large enough effect; inconclusive = small, poorly fitted or top-dose-only effect; inactive = no such curve, though single readings can be large or run the other way;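 also: % is scaled to controls: 0 for no effect and ±100 for the full control effect; nearly all actives have a fitted effect of over 50% in size; the assay follows cell death caused by Vpr and the record does not say whether a fall means rescue or toxicity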
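Fission yeast RE007 carrying one integrated HIV-1 vpr copy, seeded at OD 0.01 in PMG+AL medium with 23 nL pinned compound. Grown 24 h at 30 degrees; viability read by BacTiter-Glo luminescence after 5 min.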
Cruzain inh noDet – qHTS Assay for Promiscuous and Specific Inhibitors of Cruzain (without detergent) | Cruzipain (Trypanosoma cruzi), P25779 | purified cruzain, Z-FR-AMC fluorescence, no detergent | Potency, µM, for inactives: max response, negative = inhibition, usual class: inhibitors | 200,000 compounds, 2.3% hits;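 also: plate controls were enzyme without inhibitor for no effect and buffer without enzyme for full effect; nearly all actives have a fitted effect of over 40% in size; top concentration of the series not given in the record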
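Purified cruzain at 1.5 nM, pre-incubated 15 min with compound at room temperature in 100 mM sodium acetate pH 5.5, 5 mM DTT, 0.00005% Triton X-100. Reaction started with 2 uM Z-FR-AMC; AMC fluorescence increase over 60 s gives rate.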
SARS PLP yeast – qHTS of Yeast-based Assay for SARS-CoV PLP; S. cerevisiae expressing SARS-CoV PLpro, growth rescue; control for the full effect not named in the record; Potency, µM (series often up to 32.9 µM), for inactives: at the top dose activity, positive = growth rescue; 330,000 compounds, 0.19% hits; active means well fitted rising curve with a large enough effect; inconclusive means small, poorly fitted or top-dose-only effect; inactive means no such curve, though single readings can be large or run the other way; also: 0% is about no effect; nearly all actives have a fitted effect of over 55% in size; growth read by luminescence after 48 h
Lassa entry inh – qHTS for Inhibitors of binding or entry into cells for Lassa Virus | Potency, µM (highest dose often 37.9 µM), inactives show top-dose activity change, negative = inhibition, most hits filed as inhibitors | 300,000 compounds, 1.2% hits | Lassa virus pseudotype entry inhibition, cell reporter; control for the full effect not named in the record; active means well fitted inhibition curve with a large enough effect; inconclusive means small, poorly fitted or top-dose-only effect, or effect the other way; inactive means flat fitted curve, though single readings scatter; tested in HEK293 cells; also: % is scaled to controls: 0 for no effect and ±100 for the full control effect; nearly all actives have a fitted effect of over 50% in size; luciferase read-out
Numbers without * were called inactive; u = inconclusive; x = not tested or not shown; & = joins results of further samples; [ ] = dose if it differs, or a comment. Unless noted, calls follow the shape of the dose curve; as a rule, active = well fitted curve in the direction sought with a large enough effect; inconclusive = small, poorly fitted or top-dose-only effect, or another doubt; inactive = no such curve, though single readings can be large; an effect the other way counts as inactive or inconclusive. Potency is read from the fitted curve at half-maximal effect. Compounds were not picked by outcome; any-hit rate near 4.5%.

Start of the listing, in advance (5 entries):
SMILES	NS1 function inh	StopGo reporter	Cruzain inh Det	MARV entry inh	RE007 growth inh	Cruzain inh noDet	SARS PLP yeast	Lassa entry inh
COc1ccc(NC(=O)C(NC(=O)/C=C\c2ccc3c(c2)OCO3)c2ccc(OC)cc2)cc1 (configuration not stated)	x	8%	-4.1%	-14%[46.1 µM]	x	u	x	u
Cc1ccnc2nc(C(=O)OCC(=O)c3c[nH]c4ccccc34)nn12	-2%	-5%	x	0%	14%	x	0%	-2%
O=c1c2sc3ccccc3c2n(Cc2cccc(C(F)(F)F)c2)c(=O)n1Cc1ccccc1	x	-19%	-2.9%	-17%[46.1 µM]	x	-3%	x	1%[46.1 µM]
COc1ccc(-c2noc(COc3ccc(Cl)c(C)c3)n2)cc1	8%	-28%	1.4%	-3%	-6%	-4%	0%	x
CCOc1cc(C=C2C(=O)c3ccccc3C2=O)ccc1OCC(=O)Nc1ccc(C)cc1	1%	-16%	-11%	u	-3%	30%	24%	u

Main list, from the first entry:
SMILES	NS1 function inh	StopGo reporter	Cruzain inh Det	MARV entry inh	RE007 growth inh	Cruzain inh noDet	SARS PLP yeast	Lassa entry inh
COc1ccc(NC(=O)C(NC(=O)/C=C\c2ccc3c(c2)OCO3)c2ccc(OC)cc2)cc1 (configuration not stated)	x	8%	-4.1%	-14%[46.1 µM]	x	u	x	u
Cc1ccnc2nc(C(=O)OCC(=O)c3c[nH]c4ccccc34)nn12	-2%	-5%	x	0%	14%	x	0%	-2%
O=c1c2sc3ccccc3c2n(Cc2cccc(C(F)(F)F)c2)c(=O)n1Cc1ccccc1	x	-19%	-2.9%	-17%[46.1 µM]	x	-3%	x	1%[46.1 µM]
COc1ccc(-c2noc(COc3ccc(Cl)c(C)c3)n2)cc1	8%	-28%	1.4%	-3%	-6%	-4%	0%	x
CCOc1cc(C=C2C(=O)c3ccccc3C2=O)ccc1OCC(=O)Nc1ccc(C)cc1	1%	-16%	-11%	u	-3%	30%	24%	u
Cc1ccc(NC(=O)CSc2nncn3c2cc2sccc23)cc1F	x	-8%	-3.9%	x	x	3%	x	-1%[46.1 µM]
CC(C)NC(=O)c1ccc(CNC(=O)OCC(F)(F)F)cc1	2%	-5%	3.1%	9%[46.1 µM]	-11%	9%	3%	0%
CC1CCN(Cc2c(C(=O)N3CCc4ccccc4C3)nc3ccc(Cl)cn23)CC1	5%	-38%	x	x	1%	x	2%	x
O=C(CCNC(=O)c1ccc(Cl)cc1)Nc1ccccc1N1CCCC1	x	-7%	x	u	25%	x	5%	15%
COc1ccc(OCC(=O)N2CCN(C(=O)COc3ccccc3)CC2)cc1	-6%	-9%	6.0%	-5%	-10%	-5%	0%	0%
COc1ccc(S(=O)(=O)Nc2cccc(-c3ccc(N4CCCCC4)nn3)c2)cc1F	x	35%[activator]	-4.3%	x	x	-14%	x	-20%[46.1 µM]
O=C(N=C1SC2CS(=O)(=O)CC2N1c1ccc(OC(F)(F)F)cc1)C1CC1 (configuration not stated)	-1%	6%	x	-2%[46.1 µM]	3%	x	-1%	29%[46.1 µM]
Cc1cccc(C2Nc3ccccc3C(=O)N2CCc2ccccc2)n1 (configuration not stated)	-45%	x	1.2%	-19%	4%	5%	2%	27%
CC(=O)NCCn1c(SCC(=O)NCc2ccco2)nc2ccccc2c1=O	5%	41%[activator]	4.0%	6%	12%	2%	4%	-1%
O=[N+]([O-])c1cccc(Oc2ncccc2[N+](=O)[O-])c1	x	-3%	x	-1%	2%	x	x	4%
CCOc1ccc(N/C=C/C(=O)c2ccc3ccccc3c2)c([N+](=O)[O-])c1	4%	20%	-1.1%	2%	-1%	-24%	6%	u
O=c1nc2scc(-c3ccccc3)n2c2ccccc12	1%	x	0.0%	-2%	8%	-3%	3%	10%
COc1cccc(CN(C)CC(=O)NC(=O)NCc2ccco2)c1	0%	9%	3.8%	6%	-21%	-4%	-2%	14%
Cc1ccc(N(CC(=O)NCC(O)c2ccccc2)S(=O)(=O)c2ccc(C)cc2)cc1 (configuration not stated)	-2%	-2%	x	-1%[46.1 µM]	-9%	x	20%	u
CCn1c2ccccc2c2nn(C)c(=N)nc21	3%	-15%	-1.1%	u	-6%	-6%	-1%	u
O=c1[nH]c(=O)n(CCC2=CCCCC2)c(O)c1C=Nc1cccc(F)c1	-6%	-8%	2.7%	-14%	6%	-10%	-2%	-2%
CC(C)c1nc2oc3c(N(C)CCO)ncnc3c2c2c1CCC2	7%	-16%	x	-2%	3%	x	0%	u
CCCCSP1(=S)NCCCO1 (configuration not stated)	-2%	-11%	2.2%	23%	12%	7%	-3%	-17%
CCCOC(=O)NC1CCS(=O)(=O)C1 (configuration not stated)	0%	-12%	2.1%	-17%	1%	3%	1%	3%
Cc1ccc(C(C)C)cc1S(=O)(=O)NCc1cccnc1	-2%	33%[activator]	-3.7%	5%	-2%	4%	1%	-14%
CCCCCCNC(=O)CNC(=S)N(Cc1cccs1)C1CCCCC1	-4%	4%	x	x	29%	x	-8%	x
COc1ccc(N2CC(NC(=O)C3CCCC3)CC2=O)cc1OC (configuration not stated)	x	-18%	1.7%	x	x	-8%	x	15%[46.1 µM]
COc1ccc(S(=O)(=O)Nc2ccccc2C(=O)N2CCOCC2)cc1C	4%	30%	x	-2%[46.1 µM]	0%	x	1%	-10%[46.1 µM]
CC1CCCCC1NC(=O)CN1C(=O)NC(Cc2ccccc2)(Cc2ccccc2)C1=O (configuration not stated)	-7%	6%	1.2%	13%	6%	-10%	15%	1%
CCN(CC)C(=O)CSC1=Nc2ccccc2C2=NC(Cc3c[nH]c4ccccc34)C(=O)N12 (configuration not stated)	-10%	10%	-4.5%	26%&26%	-1%	-8%	29%	-16%
O=C(CSCc1ccc(Cl)cc1)Nc1cc([N+](=O)[O-])ccc1O	-5%	-10%	x	u	50%	x	-1%	u
CCCCN1C(=O)C(O)=C(C(C)=O)C1c1ccccc1 (configuration not stated)	-2%	-15%	-1.2%	5%	-1%	-10%	0%	21%
CN1C(=O)CSc2ccc(NC(=O)N3CCOCC3)cc21	-5%	-4%	1.3%	-2%	-19%	4%	-2%	14%
O=C1C(Cl)=C(N2CCCCC2)C(=O)C(Cl)=C1c1cnc(N2CCCCC2)s1	0%	-3%	-11%	u	-25%	u	-6%	12µM*
O=C(NCCCn1ccnc1)c1ccc(F)cc1	7%	-9%	x	x	3%	x	-1%	x
Cc1ccc2nc(SC(C(=O)c3ccccc3)c3ccccc3)nc(C)c2c1 (configuration not stated)	2%	2%	-0.2%	3%	-11%	u	-8%	-15%
COc1ccc(Cn2c(-c3ccc(OC)cc3)nc3c(c(=O)c4ccccc4n3C)c2=O)cc1	12%	x	0.1%	x	x	18%	-24%	x
Nc1ccc(C(=O)c2cccs2)cc1	-3%	47%[activator]	-6.4%	16%	4%	-7%	-11%	-1%
Cc1cc(C)cc(N(CCC#N)C(=O)COC(=O)Cn2[nH]c(=O)c3ccccc3c2=O)c1	x	-12%	x	0%	-7%	x	1%	-11%
Cc1ccc(Nc2ccc([N+](=O)[O-])nc2[N+](=O)[O-])cc1	15%	-18%	-4.5%	-4%	0%	-17%	-6%	-22%
Cc1cc(C)cc(NC(=O)CSc2ncc(S(=O)(=O)c3ccccc3)c(=O)[nH]2)c1	27%	x	-5.1%	-1%	x	4%	15%	0%
Cc1cc(-c2n[nH]c(=S)n2-c2ccccc2)nn1C	-1%	-21%	1.1%	u	10%	-2%	3%	9%
Cc1ccccc1-n1c(O)c(/C=N/c2nccs2)c(=O)[nH]c1=O	u	-12%&-6%	2.0%	3%&7%[46.1 µM]	8%&12%	1%	2%&11%	1%[46.1 µM]
O=C(OCCN1C(=O)c2cccc3c(N4CCOCC4)ccc(c23)C1=O)c1ccc(Cl)cc1Cl	u	16µM*	-5.2%	u	2%	-21%	21%	u
CC(=O)c1cc2c(cc1NC(=O)CN1CCCCC1C)OCO2 (configuration not stated)	-5%	x	2.7%	-28%	14%	3%	6%	-12%
Cc1c(NC(=O)c2ccc3ncccc3c2)c(=O)n(-c2ccccc2)n1C	3%	15%	4.1%	11%	-9%	-2%	4%	9%
CC1CCC(NC(=O)CCS(=O)(=O)c2ccc3c(c2)CCN3C(=O)C2CC2)CC1 (configuration not stated)	-10%	-25%	x	x	1%	x	1%	x
CCOC(=O)N1CCC(NC(=O)CS(=O)(=O)Cc2nc(-c3ccc(OC)cc3)oc2C)CC1	-8%	-17%	x	x	-8%	x	13%	x
CCOC(=O)N1CCN(Cc2ccc(O)c3ncccc23)CC1	2%	-13%	x	u	-27%	x	8%	u
COC(=O)c1ccc(/C=N\NC(=O)c2c(C)nc3ccc(Cl)cn23)cc1	-4%	1%	x	x	-6%	x	1%	x
CCn1c(=O)c(C(=O)CC#N)c(N)n(Cc2ccccc2)c1=O	2%	1%	x	2%	-7%	x	0%	x
Cc1ccc(NC2=NCCC2)cc1Cl	5%	-3%	4.9%	-32%	-5%	-26%	-1%	30%
Cc1ccc(-n2c(C)cc(/C=N/NC(=O)Cn3c4ccccc4c(=O)c4ccccc43)c2C)cc1	u	-14%	-2.0%	u	3%	u	-11%	-20%
CCOC(=O)C1CCN(C(=O)c2cccc(Cl)c2)CC1	-8%	8%	15%	24%	5%	4%	-1%	-5%
CC(=O)c1cn(Cc2ccccc2C#N)c2ccccc12	0%	u	x	x	3%	x	1%	3.5µM*
CCC(C)C1NC(=S)N(Cc2ccccc2)C1=O (configuration not stated)	2%	-18%	-0.3%	-22%	-11%	-4%	5%	u
